ALR H2O2 inh: human ALR oxidase inhibition via reduced H2O2; P55789; purified ALR, DTT oxidation, H2O2 HRP-luminol luminescence; inhibition, % (no concentration beside the values); actives 3.8% (n = 290,000); AID 485317;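 active = mean and each replicate at 75% or more; inconclusive = only one of the two met; inactive = neither met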;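 note: stock transfer was 7.5 nL into about 7.5 µL; 0% = neutral wells and 100% = wells with inactivated enzyme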
HNF4A DNA FP: change in binding of human HNF4 alpha to DNA; P41235; HNF4a-FITC DNA binding, fluorescence polarization, 1 h; activity change, % at 10 µM; actives 0.3% (n = 360,000); in the data active = activity change above about 30%, passing the limit was not always enough;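 note: controls were the assay level and a saturating level of protein; the project sought stronger binding though the title names inhibitors; some compounds called inactive have numbers as strong as hits; positive values seem to mean higher polarization but the record does not say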
Target sequence (P41235 whole entry, looked up): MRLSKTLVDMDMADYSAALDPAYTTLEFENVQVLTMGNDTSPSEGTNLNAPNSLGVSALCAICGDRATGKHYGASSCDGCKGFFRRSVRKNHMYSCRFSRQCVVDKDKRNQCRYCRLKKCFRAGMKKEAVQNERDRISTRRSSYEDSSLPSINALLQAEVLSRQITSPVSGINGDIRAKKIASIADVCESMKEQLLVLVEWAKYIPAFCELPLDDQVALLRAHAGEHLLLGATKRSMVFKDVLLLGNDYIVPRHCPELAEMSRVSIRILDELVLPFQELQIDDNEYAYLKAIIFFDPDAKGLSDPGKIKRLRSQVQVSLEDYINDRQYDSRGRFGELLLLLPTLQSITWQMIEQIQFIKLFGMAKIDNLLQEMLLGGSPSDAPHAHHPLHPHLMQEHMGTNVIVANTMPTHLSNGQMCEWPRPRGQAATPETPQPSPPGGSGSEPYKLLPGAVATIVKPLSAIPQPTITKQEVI
rRNA inh HTS: inhibitors of bacterial rRNA selective over humanized ribosomes | E. coli WT GFP vs humanized-ribosome RFP mutants, fluorescence, 24 h; stronger effect = lower value; DMSO median 0, no signal -100 | GFP signal change (wild-type ribosome), % (test concentration not listed) | actives 1.6% (n = 350,000) | AID 720706;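 active = significant combined selectivity score with lowered wild-type GFP, culture density cut under 30%, mutant RFP and density less affected; inactive = any of these conditions unmet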; note: one replicate is shown; some compounds called inactive have numbers as strong as hits
MLL AF4-AF9 inh: blocks AF4 peptide binding to human AF9; P42568; AlphaScreen, biotin-AF4 peptide binding to FLAG-AF9; inhibition, % at 10 µM; actives 0.47% (n = 350,000); AID 651704;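 active = every replicate reaching a set inhibition limit, whatever the replicate mean, cut at about 25% in these data; inconclusive = mean inhibition reaches that limit but some replicates miss it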;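 note: 0% = plate neutral control median and 100% = total signal loss; the record names both 10 and 1 µM as test concentration; the first replicate is given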
Target sequence (P42568 whole entry, looked up): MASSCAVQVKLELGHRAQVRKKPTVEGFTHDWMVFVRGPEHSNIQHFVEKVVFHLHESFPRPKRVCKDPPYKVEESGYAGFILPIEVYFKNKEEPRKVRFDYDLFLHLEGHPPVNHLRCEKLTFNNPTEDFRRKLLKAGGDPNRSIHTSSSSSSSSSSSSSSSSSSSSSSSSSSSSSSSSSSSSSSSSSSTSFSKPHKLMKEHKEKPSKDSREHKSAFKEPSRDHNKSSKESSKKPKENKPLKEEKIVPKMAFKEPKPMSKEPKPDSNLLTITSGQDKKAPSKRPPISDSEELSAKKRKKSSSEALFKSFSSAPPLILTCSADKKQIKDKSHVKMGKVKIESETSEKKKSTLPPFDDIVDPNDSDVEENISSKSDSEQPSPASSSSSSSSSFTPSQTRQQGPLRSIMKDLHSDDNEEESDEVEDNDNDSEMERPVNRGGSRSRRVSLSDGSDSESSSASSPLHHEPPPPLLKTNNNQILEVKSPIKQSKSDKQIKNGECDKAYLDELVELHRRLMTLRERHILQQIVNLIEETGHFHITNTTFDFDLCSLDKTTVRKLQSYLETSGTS
FGF22 binding: shifts melting point of recombinant human FGF22. Q9HCT0. recombinant FGF22 thermal shift, SYPRO orange fluorescence; percent of sucrose octasulfate shift, DMSO zero. calls only at 9.99 µM. actives 1.5% (n = 340,000);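 active = melting point raised past a set limit in the mean and every replicate; inconclusive = no clear call; three in four hits are not shown here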
E coli growth: blocks Escherichia coli growth; OD600 absorbance (test concentration not listed); actives 0.21% (n = 330,000); OD600, 23 h; stronger effect = lower value;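 active = OD600 absorbance below the run mean of sample wells minus 3.6 SD, in any replicate, cut at about 0.56 in these data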;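 note: stock transfer was 300 nL into about 60 µL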
Vif TR-FRET: HIV-1 Vif–A3G interaction blockers – biochemical, TR-FRET, GST-Vif 1-94, biotin-A3G peptide, dose response retest, primary screen (AID 1117319); TR-FRET GST-Vif / biotin-A3G peptide binding; higher % means a stronger effect; test concentration not given here; strong numbers were not always called active; actives 0.57% (n = 260,000); inhibition, %; hits with a dose series show IC50 in µM;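 active = above the screen mean plus three standard deviations and confirmed in dose response; inconclusive = results disagree or hit not tested in dose response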;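 note: Vif residues 1-94 fused to GST binding biotinylated APOBEC3G peptide 110-148; 0% = full assay without inhibitor and 100% = GST in place of GST-Vif; retest series ran down from 100 µM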
rRNA inh HTS OD600: recorded beside rRNA inh HTS, whose call it bears; OD600 change, %; measured here: OD600 growth;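 optical density of the mix in the first replicate; 0 = DMSO median and -100 = no signal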
rRNA inh HTS RFP: also measured in rRNA inh HTS; calls as there; RFP signal change, %; measured here: RFP humanized mutant strains;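 first replicate; 0 = DMSO median and -100 = no signal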
* marks the source's active call; other numbers are inactive results; i = inactive; ? = inconclusive; nt = no result given.

SMILES | ALR H2O2 inh | HNF4A DNA FP | rRNA inh HTS | rRNA inh HTS OD600 | rRNA inh HTS RFP | MLL AF4-AF9 inh | FGF22 binding | E coli growth | Vif TR-FRET
Cc1ccc(/C=N/N=C2\SCC(=O)N2CC2CC2)cc1 | -3 | 1.8 | nt | nt | nt | 3.1 | i | nt | -6%
O=C(c1cc2cc(Cl)cc(Cl)c2oc1=O)N1CCOCC1 | 7 | -0.3 | nt | nt | nt | nt | nt | 0.78 | 0%
CC(=O)Nc1ccc(NC(=O)Nc2ccccc2C)cc1 | -8 | -2.8 | 9 | -3 | -4.2 | 2.7 | i | 0.68 | 16%
O=C(Nc1cc(-c2ccccc2)nn1C1CCCCC1)c1ccc(Cl)cc1 | -4 | -0.5 | -17 | -24 | 9.3 | -3.8 | i | 0.71 | nt
O=[N+]([O-])c1ccc(O)c(-c2nc(-c3ccccc3)c(-c3cccs3)[nH]2)c1 | 1 | 6.8 | nt | nt | nt | nt | nt | 0.68 | 22%
Clc1ccccc1Cn1nnc2c(N3CCOCC3)nc(C3CC3)nc21 | 1 | 0.2 | nt | nt | nt | nt | nt | 0.73 | 0%
COc1ccc(OCC(=O)Nc2ncc3c(n2)CC(C)(C)CC3=O)cc1 | -1 | 6.1 | nt | nt | nt | nt | nt | 0.73 | -1%
CCOC(=O)c1ccccc1NC(=O)COC(=O)C(CC)Oc1ccccc1 (configuration not stated) | nt | 1.1 | 1 | -2 | 0.0 | 0.4 | i | nt | -6%
O=C(Nc1ccc(N2CCN(C(=O)c3ccco3)CC2)cc1)c1ccc(F)cc1 | nt | -0.8 | nt | nt | nt | nt | nt | 0.74 | 15%
COc1cccc(C(=O)Nc2ccccc2OC(F)(F)F)c1 | -4 | 1.8 | 6 | 0 | 0.8 | -0.1 | nt | 0.63 | 33%
N#Cc1ccc(-n2c(-c3ccccc3)nnc2-c2ccccc2)cc1C#N | -4 | 30 | nt | nt | nt | nt | nt | 0.71 | 11%
CCN(CC)S(=O)(=O)c1ccc(N2CCCCC2)c(NC(=O)C2=COCCO2)c1 | -4 | -0.9 | -13 | -36 | -2.7 | 1.1 | i | 0.69 | -1%
COc1cccc(C(=O)NCC2CCN(C(=O)C(=O)c3cc4ccccc4o3)CC2)c1 | nt | nt | -13 | -18 | -0.9 | -0.5 | i | nt | nt
CCc1ccc(NC(=O)CSc2nc3ccccc3c(=O)n2CCCC(=O)N2CCCC2)cc1 | -17 | -4.7 | nt | nt | nt | nt | nt | 0.72 | 6%
O=C(Nc1nccs1)[C@@H]1[C@@H](CO)[C@@H]2Cn3c(cccc3=O)[C@@H]2N1C(=O)C1CC1 | nt | nt | -1 | 4 | -3.5 | -2.1 | i | nt | nt
NS(=O)(=O)c1ccc(NC(=S)NC(=O)/C=C/c2cccs2)cc1 | -6 | -1.2 | -7 | 5 | -2.2 | -0.4 | i | 0.72 | 0%
CN(Cc1ccccn1)Cc1cn(Cc2ccccc2)nc1-c1ccc2c(c1)OCO2 | -5 | 3.9 | -17 | -10 | 1.8 | 9.3 | i | 0.66 | 19%
COC1=C(C)C(O)=C(C(=O)/C=C/c2ccccc2)C(=O)C1(C)C | 97* | 2.9 | -29 | -49 | -6.3 | 6.4 | i | nt | nt
CC[C@]12c3[nH]c4cc(CCC(=O)N(C)C)ccc4c3CCN1C(=O)[C@@H](CC(=O)NC/C=C(\C)CCC=C(C)C)C[C@@H]2C(=O)N1CCN(C(=O)c2ccco2)CC1 | nt | 3.4 | nt | nt | nt | nt | nt | 0.69 | 0%
Clc1ccc(SCc2cn3cccnc3n2)cc1 | -10 | -0.2 | nt | nt | nt | nt | nt | 0.65 | -4%
CC(NC(=O)c1ccccc1O)c1ccccc1 (configuration not stated) | 12 | 7.4 | nt | nt | nt | nt | nt | 0.62 | -6%
O=S(=O)(NCc1ccc(Cl)cc1)NCc1ccccc1F | 4 | -1.6 | -6 | -14 | 0.9 | -7.1 | i | 0.69 | 4%
CO[C@H]1CN(C)C(=O)c2cc(C#N)ccc2OCC[C@H]2CC[C@@H](OC)[C@H](CN(C)C(=O)[C@@H]1C)O2 | nt | nt | 4 | 7 | -1.1 | 0.9 | i | nt | nt
Cc1noc(C)c1NC(=O)N(C)C[C@@H]1OCCCC[C@@H](C)Oc2ccc(NC(=O)NC(C)C)cc2C(=O)N([C@@H](C)CO)C[C@H]1C | nt | nt | 4 | 8 | -1.2 | -2.0 | i | nt | nt
Cc1ccc(C(=O)COC(=O)C2CC(=O)N(c3nc(-c4ccccc4)cs3)C2)cc1C (configuration not stated) | -2 | -5.9 | nt | nt | nt | nt | nt | 0.71 | 0%

Two compounds from above, limited to rRNA inh HTS OD600 and rRNA inh HTS RFP.
SMILES	rRNA inh HTS OD600	rRNA inh HTS RFP
O=C(Nc1nccs1)[C@@H]1[C@@H](CO)[C@@H]2Cn3c(cccc3=O)[C@@H]2N1C(=O)C1CC1	4	-3.5
CO[C@H]1CN(C)C(=O)c2cc(C#N)ccc2OCC[C@H]2CC[C@@H](OC)[C@H](CN(C)C(=O)[C@@H]1C)O2	7	-1.1

Additional compounds
SMILES | ALR H2O2 inh | HNF4A DNA FP | rRNA inh HTS | rRNA inh HTS OD600 | rRNA inh HTS RFP | MLL AF4-AF9 inh | FGF22 binding | E coli growth | Vif TR-FRET
CCOC(=O)c1cc(-c2csc(-c3ccc(C(F)(F)F)cc3)n2)on1 | -16 | 0.3 | 12 | 11 | 1.5 | -1.0 | i | 0.71 | -15%
CCOC(=O)C1CCCN(C(=O)c2cn(CC)c(=O)c3cc(OC)c(OC)cc23)C1 (configuration not stated) | -1 | 1.1 | nt | nt | nt | nt | nt | 0.69 | 10%
C[C@@H]1CN([C@H](C)CO)C(=O)c2cc(NS(=O)(=O)c3ccc(F)cc3)ccc2O[C@@H](C)CCCCO[C@H]1CN(C)C(=O)Nc1ccccc1 | nt | nt | -10 | -44 | 10 | 3.5 | i | nt | nt
C[C@@H](O)C#Cc1ccc([C@H]2[C@H](CO)N3CCCCN(CC4CCOCC4)C[C@@H]23)cc1 | nt | nt | 4 | 18 | -3.1 | 0.4 | i | nt | nt
O=C(O)c1ccccc1C(=O)NCCCn1ccnc1 | -3 | 2.4 | 3 | 5 | -2.8 | -0.1 | i | 0.62 | nt
CCCNC(=O)[C@H]1[C@H](CO)[C@H]2Cn3c(ccc(C4=CCCCC4)c3=O)[C@@H]1N2CC | nt | nt | 0 | 5 | -1.0 | -1.3 | i | nt | nt
CCOCCCn1c(=S)[nH]c2cc(C(=O)NCCCN(CC)CC)ccc2c1=O | 56 | -3.8 | 3 | 9 | -0.4 | -9.6 | nt | 0.71 | 3%
C=CCn1c(N2CCCCCC2)nc2c1c(=O)n(C)c(=O)n2C | 22 | 0.9 | nt | nt | nt | 2.2 | nt | 0.66 | -1%
CCOC(=O)/C=C1\SCC(=O)N1CC(=O)Nc1cc(S(=O)(=O)N(C)C)ccc1C | -6 | 8.2 | 7 | -5 | 30 | 0.4 | i | 0.66 | -18%
CCN(CC)S(=O)(=O)c1cc(NC(=O)CO/N=C(\N)c2ccccc2Cl)ccc1C | nt | -1.0 | -6 | -19 | -0.6 | 1.4 | i | 0.71 | nt
CCOCCc1nnc(NC(=O)CCS(=O)(=O)c2ccccc2)s1 | -2 | -0.8 | 9 | 6 | 0.8 | -4.7 | i | 0.66 | nt
O=c1[nH]c(SCc2ccc([N+](=O)[O-])cc2)nc2[nH]ncc12 | 4 | -1.4 | 6 | 5 | -0.6 | -5.6 | i | 0.72 | -5%
Nc1c(C(=O)Nc2ccc3c(c2)OCCO3)nnn1Cc1cccc(F)c1 | -8 | 2.0 | 3 | 4 | -1.6 | -13 | i | 0.68 | 4%
CC(C)(C)N(Cc1ccccc1)C(=O)COC(=O)c1ccc2ccccc2n1 | -3 | -0.1 | -22 | -40 | -4.8 | -3.8 | i | 0.72 | -7%
Cc1noc(C)c1CSCC(=O)Nc1ccc(S(=O)(=O)C(F)F)cc1 | 1 | 1.7 | 0 | -6 | -3.0 | -9.0 | i | 0.63 | -5%
COc1ccc(Oc2ccc(N/C=C3/CCCC3=O)cc2)cc1 | nt | 0.5 | 8 | 12 | 3.5 | 2.1 | i | 0.71 | 12%
O=C(NCCCn1ccnc1)c1ccc(-c2cccc(Cl)c2Cl)o1 | -9 | 3.6 | -59 | -80 | -17 | 14 | i | 0.66 | nt
C[C@@H]1CN([C@H](C)CO)C(=O)c2cc(NC(=O)Cc3ccccc3)ccc2O[C@@H](C)CCCCO[C@H]1CN(C)Cc1ccc(Cl)c(Cl)c1 | nt | nt | 0 | -8 | 7.3 | 0.8 | i | nt | nt
Cc1noc(C)c1S(=O)(=O)N(C)C[C@H]1OCCCC[C@@H](C)Oc2ccc(NC(=O)CCCN(C)C)cc2C(=O)N([C@@H](C)CO)C[C@H]1C | nt | nt | -2 | -1 | -1.3 | 2.7 | i | nt | nt
COc1ccc(-c2noc(CN3CCN(c4ccccc4)CC3)n2)cc1 | 13 | 0.7 | -5 | -13 | 0.0 | -0.2 | i | 0.72 | 6%
N#CC(C(=O)Nc1ccccc1)=C1CCCCC1 | -7 | 0.1 | nt | nt | nt | nt | nt | 0.69 | 3%
Cn1nnnc1SCC(=O)Nc1cc(C(=O)O)cc(C(=O)O)c1 | -4 | 0.0 | nt | nt | nt | nt | nt | 0.71 | 4%
O=C(NC1CC1)C1CCN(c2ncccn2)CC1 | 0 | 2.1 | 15 | 12 | -0.3 | -1.0 | i | 0.63 | 6%
Cc1ccc(C2CC(c3cccs3)=NN2C(=O)CCl)cc1 (configuration not stated) | 40 | 15 | -1 | 2 | 3.8 | -4.7 | i | nt | -4%
C=C(Br)Cn1c(CC)nc2ccccc21 | nt | 5.0 | nt | nt | nt | nt | nt | 0.67 | 75%

(list continues)
SMILES | ALR H2O2 inh | HNF4A DNA FP | rRNA inh HTS | rRNA inh HTS OD600 | rRNA inh HTS RFP | MLL AF4-AF9 inh | FGF22 binding | E coli growth | Vif TR-FRET
C[C@@H]1CCCCO[C@@H](CN(C)CC2CC2)[C@H](C)CN([C@H](C)CO)C(=O)c2cc(NC(=O)Nc3ccc4c(c3)OCO4)ccc2O1 | nt | nt | 4 | 7 | 0.8 | ? | i | nt | nt
O=C1C(Cc2ccccc2)Nc2ncnc(N3CCCCC3)c2N1Cc1ccccc1 (configuration not stated) | -7 | 1.6 | -11 | -14 | -5.2 | 2.9 | i | 0.61 | nt
O=C(CCCc1ccccc1)Nc1ccccc1C(F)(F)F | -6 | -3.4 | 5 | 3 | -3.6 | -2.8 | i | 0.69 | 0%
O=C(CCC(=O)OCCCC(F)(F)C(F)(F)F)Nc1ccccc1 | -23 | -2.9 | 0 | -5 | -7.6 | -85 | i | 0.73 | 0%
CCOc1ccccc1N1CCN(C(=O)c2ccc3[nH]c4c(c3c2)CCCC4)CC1 | 2 | 0.9 | -27* | -13* | 5.7* | 3.0 | i | 0.69 | nt
COC(=O)c1ccc(CN2CCN(Cc3ccc(F)cc3)C(CCO)C2)cc1 (configuration not stated) | 0 | 4.3 | 16 | 17 | 3.2 | 2.8 | nt | 0.7 | ?
CCN(CC)S(=O)(=O)c1ccc(=O)n(CC(=O)N2Cc3ccccc3CC2C(N)=O)c1 (configuration not stated) | nt | -1.3 | 4 | -1 | -1.3 | -0.8 | i | 0.63 | 8%
O=C(CN1CCC(Cc2ccccc2)CC1)NC(=O)NC1CCCCC1 | -8 | -2.5 | -46 | -73 | -4.8 | -1.2 | i | 0.66 | 6%
O=C(c1ccc(F)cc1)N1CCN(c2ccccn2)CC1 | 3 | -2.4 | 3 | 8 | -3.1 | -1.2 | i | 0.68 | nt
Cc1ccc(-c2nc(CS(=O)CC(=O)NC(C)CCc3ccccc3)c(C)o2)cc1 (configuration not stated) | 93* | -2.8 | -31 | -62 | -4.2 | -16 | i | 0.7 | nt

High-throughput results from PubChem.

Not all compounds are listed; the hit share may differ from the screen's.
